# Screening results deposited in PubChem by National Center for Advancing Translational Sciences (NCATS).
# RE007 growth inh = less growth of the S. pombe RE007 Vpr strain | S. pombe RE007 Vpr strain, BacTiter-Glo ATP luminescence, 24 h; control for the full effect not named in the record | actives 0.21% (n = 360,000) | Potency, µM (doses to about 92.2 µM), without a hit: top-dose activity change, negative = less growth; active = well fitted falling curve with a large enough effect; inconclusive = small, poorly fitted or top-dose-only effect; inactive = no such curve, though single readings can be large or run the other way;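 note: % is set by controls: 0 for no effect and ±100 for the full control effect; nearly all actives have a fitted effect of over 50% in size; the assay follows cell death caused by Vpr and the record does not say whether a fall means rescue or toxicity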
#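 Fission yeast RE007 carrying one integrated HIV-1 vpr copy, seeded at OD 0.01 in PMG+AL medium with 23 nL pinned compound. Grown 24 h at 30 degrees; viability read by BacTiter-Glo luminescence after 5 min.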
# Cruzain noTriton = blocks cruzain activity in detergent-free assay; purified cruzain, Z-FR-AMC fluorescence, no detergent; Potency, µM, for the others: max response, negative = inhibition, hits mostly inhibitors; actives 2.3% (n = 200,000); active = well fitted curve in the direction sought with a large enough effect; inconclusive = small, poorly fitted or top-dose-only effect, or another doubt; inactive = no such curve, though single readings can be large; an effect the other way counts as inactive or inconclusive;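 note: plate controls were enzyme without inhibitor for no effect and buffer without enzyme for full effect; nearly all actives have a fitted effect of over 40% in size; top concentration of the series not given in the record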
# Target sequence (P25779 123-467 limits assumed): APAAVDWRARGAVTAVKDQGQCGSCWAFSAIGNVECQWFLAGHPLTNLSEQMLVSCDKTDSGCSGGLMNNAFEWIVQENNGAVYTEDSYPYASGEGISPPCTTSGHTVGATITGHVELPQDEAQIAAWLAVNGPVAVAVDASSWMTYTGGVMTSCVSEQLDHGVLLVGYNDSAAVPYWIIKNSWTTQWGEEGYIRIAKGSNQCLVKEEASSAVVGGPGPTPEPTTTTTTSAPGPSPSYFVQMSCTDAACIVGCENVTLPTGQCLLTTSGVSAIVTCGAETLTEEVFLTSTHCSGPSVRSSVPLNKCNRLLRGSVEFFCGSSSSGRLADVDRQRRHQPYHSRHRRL
#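 Purified cruzain at 1.5 nM, pre-incubated 15 min with compound at room temperature in 100 mM sodium acetate pH 5.5, 5 mM DTT, 0.00005% Triton X-100. Reaction started with 2 uM Z-FR-AMC; AMC fluorescence increase over 60 s gives rate.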
# SARS PLP yeast = SARS-CoV PLP inhibition in yeast; S. cerevisiae expressing SARS-CoV PLpro, growth rescue; control for the full effect not named in the record; actives 0.19% (n = 330,000); Potency, µM (doses to about 32.9 µM), for the others: at the highest dose activity, positive = growth rescue; note: 0% is about no effect; nearly all actives have a fitted effect of over 55% in size; growth read by luminescence after 48 h
# LASV entry inh = inhibitors of Lassa virus binding or cell entry. Lassa virus pseudotype entry inhibition, cell reporter; control for the full effect not named in the record. Potency, µM (series often up to 37.9 µM), for inactives: at the highest dose activity change, negative = inhibition, hits mostly inhibitors. actives 1.2% (n = 300,000). AID 540256; active means well fitted inhibition curve with a large enough effect; inconclusive means small, poorly fitted or top-dose-only effect, or effect the other way; inactive means flat fitted curve, though single readings scatter; tested in HEK293 cells; note: % is set by controls: 0 for no effect and ±100 for the full control effect; nearly all actives have a fitted effect of over 50% in size; luciferase read-out
# 2A StopGo = FMDV 2A StopGo reporter, luciferase signal; human cells with a luciferase reporter of 2A StopGo recoding; control for the full effect not named in the record; Potency, µM (titrated, usually from 57.9 µM), for inactives: top-dose signal change, negative = less light; actives 1.2% (n = 410,000); AID 1159524; active = well fitted falling curve with a large enough effect; inconclusive = small, poorly fitted or top-dose-only effect; inactive = no such curve, though single readings can be large or run the other way; tested in HEK293T cells; note: % is set by controls: 0 for no effect and ±100 for the full control effect; nearly all actives have a fitted effect of over 45% in size; luciferase light after 4 h
# NS1 inh = blocks influenza NS1 protein function | AID 2326 | S. cerevisiae slowed by influenza A NS1, growth recovery by OD600 | actives 0.4% (n = 270,000) | Potency, µM (top dose mostly 46.1 µM), for inactives: at the highest dose activity, positive = more growth; note: actives are rising curves; nearly all actives have a fitted effect of over 50% in size
#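 Growth recovery, yeast-based: influenza A NS1 expressed in S. cerevisiae causes slow growth, and suppressors are detected by OD600. The parent strain without NS1 is used as positive control.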
# Cruzain inh Det = blocks cruzain activity in presence of Triton detergent; P25779; purified cruzain, Z-FR-AMC fluorescence, 0.01% Triton; Potency, µM, without a hit: max response, negative = inhibition, actives largely listed as inhibitors; actives 0.43% (n = 200,000); AID 1478; active = well fitted curve in the direction sought with a large enough effect; inconclusive = small, poorly fitted or top-dose-only effect, or another doubt; inactive = no such curve, though single readings can be large; an effect the other way counts as inactive or inconclusive;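 note: plate controls were neutral wells for no effect and buffer without enzyme for full effect; nearly all actives have a fitted effect of over 40% in size; top concentration of the series not given in the record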
#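 Cysteine protease activity tested under reducing, mildly acidic conditions (100 mM sodium acetate pH 5.5, 5 mM DTT) plus 0.01% Triton X-100. Cruzain 1.5 nM; substrate Z-FR-AMC 2 uM; 15 min compound preincubation at room temperature.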
# Marburg entry inh = blocks Marburg virus binding to or entry into cells. actives 1.8% (n = 300,000). Potency, µM (top dose mostly 37.8 µM), inactives show top-dose activity change, negative = inhibition, actives largely listed as inhibitors. Marburg virus pseudotyped entry inhibition, cell reporter; control for the full effect not named in the record; about a third of the inactives were read at about 46 µM. AID 540276; active = well fitted inhibition curve with a large enough effect; inconclusive = small, poorly fitted or top-dose-only effect, or effect the other way; inactive = flat fitted curve, though single readings scatter; tested in HEK293 cells; about a fifth of its hits are not listed in these tables; note: % is set by controls: 0 for no effect and ±100 for the full control effect; luciferase read-out
# * hit, by the source's call; ? = inconclusive; . = not tested or not shown; & = joins results of further samples; [ ] = dose if it differs, or a comment. Unless noted, calls come from the whole dose curve; as a rule, active means well fitted rising curve with a large enough effect; inconclusive means small, poorly fitted or top-dose-only effect; inactive means no such curve, though single readings can be large or run the other way. Potency is the fitted concentration of half-maximal effect.
# Values in the order: Marburg entry inh, LASV entry inh, 2A StopGo, Cruzain noTriton, Cruzain inh Det, RE007 growth inh, NS1 inh, SARS PLP yeast
- Cc1ccccc1OCC(=O)N1CCC2(CC1)CC(=O)c1ccccc1O2
    -9.9%, ?, -29.3%, ., ., 6.6%, ., 0.2%
- CCOC(=O)c1cc2sc(C)cc2n1CC(=O)Nc1ccc2c(c1)OCCO2
    -24.0%, 0.0%, ., -4.6%, -5.8%, -4.4%, -2.1%, -2.6%
- Cc1ccc(N2CC(NC(=O)c3ccc4c(c3)OCO4)CC2=O)cc1 (stereo not given)
    ., 0.4%[46.1 µM], -10.9%, -0.6%, -0.4%, ., ., .
- Oc1c(C(c2ccccc2)N2CCN(c3ccccc3)CC2)sc2nc(-c3ccco3)nn12 (stereo not given)
    ., -1.5%[46.1 µM], -1.8%, 18.3%, 0.2%, ., ., .
- COc1ccc(C2C(C(C)=O)=C(O)C(=O)N2C)c(OC)c1 (stereo not given)
    -4.0%&-0.5%, ?, 6.4%, -11.3%, -0.5%, 4.6%, -0.7%, 3.3%
- CCOC(=O)c1ccccc1NC(=O)COC(=O)CCNS(=O)(=O)c1cccs1
    -0.9%, 24.5%, 3.7%, ., ., -18.1%, ., 5.0%
- Cc1cc(C(=O)CSc2nc3ccccc3n2C)c(C)n1C
    -7.0%, -4.0%, 10.2%, 2.6%, 0.1%, -5.5%, -3.5%, 8.2%
- Cc1cc(OCCOCCNC(C)C)cc(C)c1Cl
    ?, ?, 0.0%, 11.8%, 7.1%, -16.4%, 0.3%, -12.0%
- CCOC(=O)c1cnc(SC2CCc3ccccc3C2=O)nc1N (stereo not given)
    -1.4%, -5.4%, 16.0%, -14.9%, 0.6%, -24.7%, -66.2%, -2.0%
- Cc1ccc(NC(=O)c2cc3c([nH]c2=O)CC(C)(C)CC3=O)c(C)c1
    ?, 0.2%[46.1 µM], 47.1%[activator], 7.7%, -2.5%, ., ., .
- CCN(CC)c1ccc(NC(=O)COC(=O)c2cccs2)cc1
    -16.2%, 20.5%, 0.0%, -14.1%, 1.0%, 0.7%, -13.9%, 4.9%
- O=C1N(c2ccccc2)C[C@@H]2C[C@@H](c3cccs3)N3CCC[C@@]123
    ., ., -1.9%, ., ., 13.3%, 4.1%, 0.7%
- O=S(=O)(NCc1ccccc1)c1ccc(F)cc1Br
    ., 14.9%[46.1 µM], 34.4%[activator], ., ., -10.8%, 2.4%, -1.6%
- COc1ccc(C(C)C)cc1S(=O)(=O)N1CCC(C(=O)NCc2cccnc2)CC1
    -10.2%[46.1 µM], ., 9.6%, ., ., 1.4%, -14.9%, -0.5%
- Cc1ccc(C2C3=C(NCCN=C3c3ccccc3)C(=O)N2c2ccccc2)cc1 (stereo not given)
    10.3µM*, ?, ., -3.4%, -3.7%, 3.6%, 1.3%, 0.4%
- O=C(NCc1ccccc1Cl)c1ccc(Cn2cc(C(F)(F)F)ccc2=O)cc1
    -2.4%, -8.7%, -11.6%, -1.6%, -5.4%, -0.5%, 17.3%, 2.8%
- O=C(COC(=O)c1ccc(S(=O)(=O)Nc2ccccc2)cc1)NCc1ccco1
    24.9%, 6.8%, 5.1%, -7.4%, -9.1%, -5.9%[3.69 µM], 1.8%, 3.8%
- Cc1ccc(C(=O)N2CCN(c3ccc(C(F)(F)F)cn3)CC2)o1
    -3.7%, -7.8%, -28.8%, ., ., ?, ., -5.2%
- Cc1cc(C(=O)OCC(=O)Nc2c(Cl)cccc2C(F)(F)F)c(C)o1
    -2.5%, -20.0%, -1.6%, ., ., 1.3%, ., 1.4%
- Cc1ccsc1C(=O)N[C@@H](C)c1nnc2ccccn12
    ., ., 0.7%, ., ., -6.3%, -10.1%, -1.7%
- C=Cc1ccc(Cn2c(=O)n(CC3CCC(C(=O)NC(C)C)CC3)c(=O)c3sccc32)cc1 (stereo not given)
    ., 4.2%[46.1 µM], -16.6%, 7.9%, -3.0%, ., ., .
- COC(=O)c1ccc(CSc2nc3ccccc3c(=O)n2Cc2ccco2)o1
    ?, -27.6%, ., -10.2%, -0.4%, 13.7%, -37.0%, -4.1%
- COc1ccc(C2=NOC(C(=O)Nc3cccnc3Cl)C2)cc1 (stereo not given)
    ., ., -9.8%, ., ., 15.9%, -12.1%, 0.2%
- CC(NC(=O)C1CCN(c2nc3ccccc3nc2C(F)(F)F)CC1)c1ccccc1 (stereo not given)
    ., 12.6%[46.1 µM], 0.1%, -2.0%, 2.4%, ., ., .
- COc1cc(NC(=O)COc2ccccc2[N+](=O)[O-])ccc1NC(=O)c1ccco1
    ., ., -10.8%, ., ., -15.2%, 4.7%, 2.4%
- COc1ccc(/C=N/NC(=O)c2cccc(NC(=O)c3ccccc3)c2)c(C(=O)O)c1OC
    -24.6%, 16.8%, -14.7%, -0.3%, -8.1%, ., 19.1%, 7.2%
- Cc1ccc2c(c1)N(CC(=O)NCC1CCCO1)C(=O)C(C(C)C)O2 (stereo not given)
    4.7%[46.1 µM], 12.5%, 24.6%, ., ., 13.0%, 4.6%, 0.0%
- CC(C)CN(C(=O)CC(C)c1ccccc1)c1c(N)n(Cc2ccccc2)c(=O)[nH]c1=O (stereo not given)
    -3.6%, -31.7%, -8.6%, ., ., 0.5%, ., -5.1%
- Cc1ccc(NC(=O)Cn2c3ccc(F)cc3c3nc4n(c(=O)c32)CCS4)cc1F
    ?, ?, -16.5%, ., ., 4.3%, ., 0.3%
- O=C(Cc1ccc(NS(=O)(=O)c2ccc(F)cc2)cc1)NCc1cccnc1
    ?, 13.8%[46.1 µM], 7.1%, ., ., -10.6%, 1.7%, -3.4%
- Cc1cnc(N2C(=O)c3ccc([N+](=O)[O-])cc3C2=O)s1
    11.0%[46.1 µM], 1.4%, -4.4%, ., ., -10.3%, ., -0.9%
- CCCn1c(=O)c(C(=O)NCc2ccc(OC)c(OC)c2)c(O)c2ccccc21
    -20.8%, 11.8%, ?, ?, -1.6%, 27.0%, ?, 2.0%
- CC(=O)c1ccc(NC(=O)CSc2nc(-c3ccccc3C)nc3c2c(=O)n(C)c(=O)n3C)cc1
    ., 12.2%[46.1 µM], ?, -1.4%, 5.2%, ., ., .
- S=c1[nH]c(-c2ccccc2)cn1/N=C/c1ccncc1
    13.2%[46.1 µM], ?, 9.1%, ., ., 2.6%, -0.2%, 1.0%
- O=C(NCc1ccccc1)c1cccc(COc2ccccc2Cl)c1
    ?, ?, -22.5%, -1.2%, -5.3%, -2.4%, -8.6%, -11.2%
- Cc1cccc(C)c1NC(=O)c1ccc2c(c1)CCN2S(C)(=O)=O
    18.5%[46.1 µM], 5.2%[46.1 µM], -10.6%, ., ., 5.3%, 0.7%, -1.3%
- CCn1c(NC(=O)C(C)C)c2ccccc2nc1=O
    ., ., 10.0%, ., ., 9.1%, -3.7%, 0.2%
- O=C(Nc1ccc(Cl)c(S(=O)(=O)N2CCOCC2)c1)c1ccc(OCC2CCCO2)cc1 (stereo not given)
    2.24µM*, ?, 7.94µM*, ., ., -15.0%, ., 4.0%
- N#Cc1c[nH]n2c(NC3CCCC3)c(-c3ccc(Cl)cc3)nc12
    1.41µM*, -27.4%[46.1 µM], -10.8%, ?, -8.3%, ., ., .
- COc1ccccc1/C=N\Nc1cc(C)nc(-n2nc(C)cc2C)n1
    ?, ?, ?, ?, -21.3%, -0.4%, 0.5%, -3.3%
- COc1ccccc1-c1nnc(SCC(=O)NCc2c(C)c(Cl)cc(C(C)C)c2O)o1
    ?, -4.1%, ?, ?, -2.3%, 1.9%, -108.8%, -18.4%
- CC(=O)Nc1ccc(C=NNC(=O)CCCC(=O)NN=Cc2ccc(NC(C)=O)cc2)cc1
    12.0%, 20.8%, -13.5%, ., ., 0.6%, ., .
- COc1cc2c(cc1OC)C(C(=O)N1CCN(c3ccccn3)CC1)C(c1cccs1)N(C)C2=O (stereo not given)
    25.4%, 1.5%, -18.1%, 7.3%, 3.8%, 8.7%, -9.1%, 3.6%
- N/C(Cc1ccc([N+](=O)[O-])cc1)=N\OC(=O)c1ccccc1Br
    ?, ?, ?, -1.8%, -4.2%, -4.7%, -45.6%, -61.3%
- CCC(=O)Nc1ccc(CC)cc1-c1nc2ccccc2n(CC(=O)Nc2cccc(Cl)c2)c1=O
    -1.7%[46.1 µM], 3.3%[46.1 µM], 1.3%, -11.6%, -1.4%, ., ., .
- Cc1ccccc1OCC(=O)Nc1nnc(S(=O)(=O)N2CCCCCC2)s1
    ., 2.5%[46.1 µM], 2.5%, 4.4%, -1.2%, ., ., .
- O=C(CCC1CCCCC1)NCc1cccnc1
    0.9%[46.1 µM], 7.0%[46.1 µM], 5.7%, ., ., 1.2%, 12.1%, -4.0%
- CNc1cc([N+](=O)[O-])ccc1OCc1ccccc1
    ., ., 11.2%, ., ., -0.9%, -36.8%, -5.0%
- Cc1[nH]ncc1N=Cc1ccc([N+](=O)[O-])cc1
    -5.2%, 15.0%, -8.8%, -2.3%, -0.1%, -1.1%, 5.2%, -9.7%
- CCOC(=O)c1nn(-c2ccc(Cl)cc2)c2nnc(Cc3ccc(C)cc3)c(=O)n12
    2.5%, -17.7%, 0.0%, -10.3%, -1.6%, 21.5%, 17.0%, -8.3%
- CCC(C)NC(=O)Nc1ccc2c(c1)N(C)C(=O)c1ccccc1S2 (stereo not given)
    -20.0%, -18.5%, 13.9%, -1.0%, 9.0%, 12.6%, 20.4%, -6.2%
- CNC(=S)N=Nc1c(O)[nH]c2ccccc12
    7.3%, 11.5%, 8.3%, -4.9%, -8.9%, -3.7%, -6.1%, 7.4%
- CCOC(=O)CCCCC(=O)c1[nH]c(=O)[nH]c1CSc1nc(C)cc(C)n1
    8.7%[46.1 µM], -15.3%, -2.1%, 4.6%, 3.5%, -2.5%, -16.2%, -1.5%
- CN(C)Cc1c(O)ccc2c3c(c(=O)oc12)CCCCC3
    ?, 26.5%, 5.1%, ?, 22.4µM*, -2.5%, -5.6%, -7.1%
- Cc1ccccc1NC(=O)C1C2CCCCC21 (stereo not given)
    ., ., 19.2%, ., ., -5.4%, 25.3%, 1.3%
